Screening results deposited in PubChem BioAssay by ICCB-Longwood Screening Facility, Harvard Medical School.
GIV-Gai inh = GIV-Galpha-i interaction inhibition; P08753; Galpha-i3/FITC-GIV peptide fluorescence polarization, 90 min; hits give low values; scaled: aluminum fluoride 0%, vehicle 100%; percent of control (FP), % (no concentration beside the values); hit rate 0.42% among 210,000;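 active means replicate mean at 85% of control or lower, very high polarization wells dropped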;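 further: wells of about 15 µL received 100 nL stock; the first replicate is given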
Target sequence (P08753 whole entry, looked up): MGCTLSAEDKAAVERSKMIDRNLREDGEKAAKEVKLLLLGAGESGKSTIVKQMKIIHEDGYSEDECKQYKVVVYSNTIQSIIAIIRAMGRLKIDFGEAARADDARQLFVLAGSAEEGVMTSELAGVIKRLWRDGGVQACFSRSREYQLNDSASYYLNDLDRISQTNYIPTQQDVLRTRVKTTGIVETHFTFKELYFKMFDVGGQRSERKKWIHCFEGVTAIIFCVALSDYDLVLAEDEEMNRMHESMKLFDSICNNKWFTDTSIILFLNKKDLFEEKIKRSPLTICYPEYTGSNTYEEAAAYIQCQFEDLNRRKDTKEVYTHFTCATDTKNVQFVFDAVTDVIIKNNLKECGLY
HCMV NEC inh = inhibitors of HCMV UL50-UL53 nuclear egress complex interaction; HTRF UL50-UL53 interaction, normalized percent inhibition; inhibition, % (concentration not given with the values); hit rate 0.15% among 190,000;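 active means both replicates at 50% or more, plus weaker picks with an unusually low signal ratio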;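 further: stock transfer was 100 nL into about 20 µL; 0% = negative control wells and 100% = wells with untagged competitor protein; inactives centre near -12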
Sa growth 42C = inhibitors of Staphylococcus aureus growth at 42 °C; S. aureus RN4220 growth, OD600, 20 h; hits give low values; relative growth, % (test concentration not listed); hit rate 0.53% among 170,000;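 active means growth at 42 °C up to 50% and 20 or more points under that at 30 °C, or under 10% at both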;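 further: 300 nL library stock went into each well; scaled to the means of positive and negative controls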
Sa growth 42C second temp = second read-out of Sa growth 42C, no call of its own (marks repeat the call); relative growth, %; measured here: growth at 30 °C;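 optical density after 20 h as mean of two plates; 100% = untreated growth and lower means inhibition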
* hit, by the source's call; . = no result given; & = joins results of further samples. Only part of the results is shown, so the mix of outcomes need not match the whole.

Order of results – GIV-Gai inh, Sa growth 42C, Sa growth 42C second temp, HCMV NEC inh
1: CCCc1ccc(OCC(=O)Nc2ccc(Cl)cc2C(=O)c2ccccc2)cc1
  104, 97, 92, -51
2: C#CC1(O)CN2CCC1CC2 (centres undefined)
  103, 98, 94, -9
3: O=C(NCCc1c[nH]c2ccccc12)c1cc2cccnc2n(Cc2ccccc2F)c1=O
  111, ., ., -26
4: CCCC12CN3CC(CCC)(CN(C1)C3C)C2=O (centres undefined)
  105&94, 94, 81, -20&-13
5: COc1ccc(-c2nc(CN3C(=O)CN=C(c4ccccc4Cl)c4cc(Cl)ccc43)c(C)o2)cc1OC
  101, 108, 79, -16
6: COc1ccc(C2SCC(=O)Nc3c2c(-c2ccccc2)nn3-c2ccccc2)cc1OC (centres undefined)
  106, ., ., -19
7: CCOC(=O)C1=C(C)OC(N)=C(C(=O)OCc2ccccc2)C12C(=O)Nc1ccccc12 (centres undefined)
  105, ., ., 2
8: CC(C)C/C(=N\O)c1cn(C)c2ccccc12
  96, 125, 95, .
9: CCOC(=O)c1c(C)n(Cc2ccccc2)c2ccc(OC(=O)c3ccccc3Cl)cc12
  100, ., ., -20
10: O=C(O)c1cn(Cc2ccccc2)c2ccccc12
  ., 113, 93, -41
11: COc1ccc(CCN)cc1OC
  ., 90, 86, -49
12: CC(=O)O[C@H]1C[C@H](O[C@H]2[C@@H](O)C[C@H](O[C@H]3[C@@H](O)C[C@H](O[C@H]4CC[C@@]5(C)C(CCC6C5C[C@@H](O)[C@]5(C)[C@@H](C7=CC(=O)OC7)CC[C@]65O)C4)O[C@@H]3C)O[C@@H]2C)O[C@H](C)[C@H]1O[C@@H]1O[C@H](CO)[C@@H](O)[C@H](O)[C@H]1O (some centres undefined)
  ., 88, 88, -36
13: OC1CCN(Cc2c[nH]c3ccccc23)CC1
  103, 121, 102, -14
14: COCCOC(=O)C1=C(C)OC(N)=C(C#N)C12C(=O)Nc1ccc(Br)cc12 (centres undefined)
  104, 84, 65, 6
15: COC(=O)c1cn(Cc2ccc(C#N)cc2)c2ccccc12
  ., 97, 106, -12
16: O=C1NC(=O)N(c2ccccc2)C(=O)/C1=C/C=C/c1ccco1
  143, 67, 55, 4
17: COc1ccc(CCNC2CCCCC2)cc1OC
  100, 89, 76, -7
18: COc1ccc(-n2cnc3cc(C(=O)N4CCC5(CC4)OCCO5)ccc32)cc1
  100, 107, 86, .
19: C/[N+]([O-])=C\c1cccnc1
  ., 105, 94, -71
20: CCOc1ccc(CN(CCc2ccc3c(c2)OCO3)Cc2cccc(C)c2)cc1
  105, 85, 86, 2
21: Cn1c(O)c(C(=NCCN2CCCCC2)c2ccccc2Cl)c(=O)n(C)c1=O
  100, ., ., 1
22: CCOC(=O)C1=C(N)Oc2c(c(=O)oc3ccccc23)C12C(=O)N(CC(=O)OC)c1ccccc12 (centres undefined)
  97, 128, 76, .
23: CCOc1ccccc1NC(=O)N1Cc2c(C)cc(C)nc2-n2cccc2C1c1ccc(F)cc1 (centres undefined)
  107, ., ., -10
24: CCC(C)c1c(O)[nH]c(=S)[nH]c1=O (centres undefined)
  100, 84, 78, -2
25: NCC(O)c1cc(O)c(O)cc1F (centres undefined)
  101, ., ., -36
26: Clc1ccc(CN2CCNCC2)cc1
  102, 119, 105, .
27: COc1ccc(N2C(=O)/C(=C/c3ccc(-c4cc(C(=O)O)ccc4Cl)o3)C(=O)NC2=S)cc1
  108, ., ., -1
28: c1cc(CN2CCNCC2)ccn1
  105, 120, 107, -10
29: COC(=O)Nc1nc2ccccc2[nH]1
  100, ., ., -10
30: COc1ccc(CC2C(=O)NC(=S)NC2=O)cc1
  99, 122, 101, -5
31: C=CCNC(=O)c1cc2cccnc2n(Cc2ccccc2)c1=O
  109, ., ., -11
32: Oc1ccc(N2CCNCC2)cc1
  ., 109, 91, -10
33: CSc1ccc(C(c2c(O)c3ccccc3oc2=O)c2c(C)n(C)n(-c3ccccc3)c2=O)cc1 (centres undefined)
  97, 103, 90, 14
34: N#CC1(P(=S)(c2ccccc2)c2ccccc2)CCCC1
  ., 101, 81, -12
35: C1CCC(OCC2CCCN3CCCCC23)CC1 (centres undefined)
  ., 92, 120, 2
36: ON=C1CC2CCCC(C1)N2Cc1ccccc1
  104, 116, 101, -4
37: Fc1cc(Br)ccc1C1NCCc2[nH]cnc21 (centres undefined)
  105, ., ., -19
38: COc1ccccc1CNCCc1ccccc1
  100, 85, 82, -20
39: Cc1cc(Br)c(NC(=O)C2C(C)(C)C2(C)C)c(Br)c1
  ., 107, 108, -11
40: CN1CCC(N(C)c2nc(-c3cccs3)nc3sc4c(c23)CCC4)CC1
  ., 87, 85, -26
41: COc1ccccc1C1C(C#N)=C(N)Oc2c1c(=O)sc1ccccc21 (centres undefined)
  107, 105, 94, -13
42: CO[C@H]1CC=C2CCN3CCC4=C(CC(=O)OC4)[C@]23C1
  109, ., ., -14
43: O=c1c2ccccc2[nH]c(=S)n1-c1cc(C(F)(F)F)cc(C(F)(F)F)c1
  97, 110, 88, -18
44: CN(C)CCNC(=O)c1cc2cccnc2n(Cc2ccccc2)c1=O
  105, ., ., -24
45: Cc1ccc(C)c(NC2=NCCCS2)c1
  ., 104, 90, 0
46: CC1CN=C(NCc2cccnc2)S1 (centres undefined)
  98, 91, 107, -18
47: Cc1ccc(-n2c(/C=C/c3cccc4ccccc34)nc3ccccc3c2=O)cc1
  102, 86, 92, .
48: O=C(c1cn(Cc2ccccc2)c2ccccc12)C1CC1
  ., 98, 93, 5
49: CC1CCOP(=S)(N(C)C)O1 (centres undefined)
  98, 100, 84, 5
50: NC1(c2cccc(Cl)c2)CCC1
  102, 89, 83, 3
51: O=C(O)C1(c2ccccc2)CCN(Cc2ccccc2)CC1
  99, 83, 96, -6
52: Cc1cccc(N=C2SCCN2C)c1C
  ., 92, 87, -5
53: COc1ccc(N2C(=O)CC(=O)NC2=S)cc1
  100, 92, 93, 3
54: CCOP(=S)(c1ccccc1)C1(C#N)CCCC1 (centres undefined)
  ., 111, 90, -1
55: Cc1ccc(NN)cc1C
  103, 95, 85, -35
56: Nc1cc(C(=O)Nc2ccccc2F)ccc1N1CC2CC(C1)c1cccc(=O)n1C2 (centres undefined)
  107, 101, 93, -14
57: Fc1ccc(C2NCCc3[nH]cnc32)c(F)c1 (centres undefined)
  105, ., ., -22
58: COc1ccc(C2=[N+]([O-])C(C)(C(=O)c3ccccc3)N(O)C2OC)cc1 (centres undefined)
  ., 103, 92, -6
59: Cn1c(CCCC(=O)O)nc2cc(N(CCCl)CCCl)ccc21
  97, ., ., 67*
60: CCOc1ccc(NC(=O)N2Cc3ccccc3-n3cccc3C2c2ccc(Cl)cc2)cc1 (centres undefined)
  102, ., ., -27

New compounds follow
Order of results – GIV-Gai inh, Sa growth 42C, Sa growth 42C second temp, HCMV NEC inh
61: CN(C)c1ccc(P(=S)(N2CCCCC2)N2CCCCC2)cc1
  ., 88, 86, -2
62: C=CCNC(=O)c1cc2cccnc2n(Cc2ccc(F)cc2)c1=O
  105, ., ., -19
63: C1CN2CN3CCN(CN1C3)C2
  112, 68, 54, -86
64: COc1cc2c(no[n+]2[O-])n2nnnc12
  80*, 85, 67, -96
65: Cc1nn(Cc2ccccc2)c(C)c1C(=O)OCC(=O)Nc1ccc(S(N)(=O)=O)cc1
  ., 103, 84, 5
66: c1ccc(OCC2CCCN3CCCCC23)nc1 (centres undefined)
  104, 99, 107, -4
67: Cc1ccc(CN(Cc2ccco2)C(=S)NCC(=O)N2CCC3(CC2)OCCO3)cc1
  103, 108, 73, -13
68: COCc1cc(OC(=O)N(C)C)nc(-c2ccncc2)n1
  100, 111, 94, -35
69: O=C(O)[C@@H]1CCN1
  106, ., ., -32
70: CN(C)P1(=S)OCCCO1
  103, 87, 80, 80
71: CC(Cc1ccc(OCC(=O)O)cc1)NCC(O)c1cccc(Cl)c1 (centres undefined)
  98, ., ., -34
72: Cc1cccc(Cn2cccc(C(=O)Nc3cc(C)on3)c2=O)c1
  99, 136, 96, .
73: CC1(C)CN=C(Nc2nc3ccccc3s2)S1
  96, 94, 91, 2
74: CC(Cc1ccccc1)NC(=O)Cc1ccc(N(C)C)cc1 (centres undefined)
  102, 103, 116, 0
75: Clc1ccc(C(Cn2ccnc2)OCc2csc3c(Cl)cccc23)c(Cl)c1 (centres undefined)
  109, 0.9*, 6.0*, -32&-16
76: O=C(O)C(O)(c1ccccc1)C1CCCCC1 (centres undefined)
  107, 108, 64, -2
77: CC(C(=O)c1ccc2ccccc2c1)N1CCCCC1 (centres undefined)
  98, 102, 81, -70
78: COc1ccc(C2=NCC(=O)N(CC(=O)Nc3ccc(F)cc3)c3sccc32)cc1
  103, ., ., -10
79: CCOc1ccc(CC2(CCc3ccncc3)C(=O)NC(=O)NC2=O)cc1
  105, 115, 100, 1
80: O=C(NCc1ccccc1)N1Cc2ccccc2-n2cccc2C1c1ccc(Cl)cc1 (centres undefined)
  105, ., ., -17
81: C[N+]1(C)CCC(OC(=O)C(c2ccccc2)c2ccccc2)CC1
  105, ., ., -5&0
82: Cc1[nH]nc2c1C(c1ccc(F)cc1F)SCC(=O)N2 (centres undefined)
  98, ., ., -25
83: CCCC1(CCC)C(=O)NC(=Nc2ccccc2)NC1=O
  103, 95, 76, 8
84: N#CCCn1cc(C(=O)Cn2cc(C(F)(F)F)ccc2=O)c2ccccc21
  ., 77, 97, -22
85: COc1cc(/C=C/C(=O)O)ccc1OCC(=O)N1CCN(CC(=O)NC(C)(C)C)CC1
  ., 76, 95, -58
86: O=C(CNC(=S)N1CC2CC(C1)c1cccc(=O)n1C2)NC1CCCCC1 (centres undefined)
  105, 95, 96, -12
87: C=CCN1CCC23c4c5ccc(O)c4O[C@H]2C(=O)CC[C@@]3(O)C1C5 (some centres undefined)
  98, ., ., -6
88: O=C(O)c1cc(Cl)nc(Cl)c1
  ., 72, 89, -2
89: Cc1ccc2[nH]cc(CCN)c2c1
  103, 97, 95, .
90: CCCc1nc(SC)ncc1C(=O)Nc1ccc(Cl)cc1C(=O)c1ccccc1
  105, 108, 92, .

Copied from above, nos. 89–90
Order of results – GIV-Gai inh, Sa growth 42C, Sa growth 42C second temp, HCMV NEC inh
89: Cc1ccc2[nH]cc(CCN)c2c1
  103, 97, 95, .
90: CCCc1nc(SC)ncc1C(=O)Nc1ccc(Cl)cc1C(=O)c1ccccc1
  105, 108, 92, .

(further entries)
Order of results – GIV-Gai inh, Sa growth 42C, Sa growth 42C second temp, HCMV NEC inh
91: COc1ccc2c(c1)c(C(=O)O)c(C)n2C
  100, 110, 90, -8
92: CN(C)/C=C(\C=[N+](C)C)c1[nH]ncc1N
  ., 110, 91, -11
93: O=C1/C(=C\c2cc3c(cc2Cl)OCO3)N2CCC1CC2
  106, 121, 117, -14
94: NCCc1ccc(S(N)(=O)=O)cc1
  ., 110, 93, -3&-31
95: CCNCC1(c2ccc(OC)c(OC)c2)CCCC1
  101, 104, 87, -12
96: NC(=O)CI
  96, ., ., 16
97: Cc1c(CN2CC=C(c3ccccc3)CC2)c(=O)n(-c2ccccc2)n1C
  ., 85, 92, -25
98: S=P1(NCc2ccccc2)NC(=NCc2ccccc2)c2c(nc3n2CCC3)N1 (centres undefined)
  101, 103, 104, -10
99: CC1OC(NCCc2ccccc2)C(O)C(O)C1O (centres undefined)
  99, 89, 94, -8
100: COc1ccc(CNC(=O)/C=C/c2ccc3[nH]cc(CCN(C)C)c3c2)cc1
  108, ., ., -17&-65
101: CN(C)S(=O)(=O)c1ccc(N2CCNCC2)cc1
  105, 110, 94, -18
102: COc1cccc(-n2c(/C=C/c3cccc(C)c3)nc3ccccc3c2=O)c1
  101, 104, 95, -40
103: Cc1ccc(OCC(=O)Nc2ccc(Cl)cc2C(=O)c2ccccc2)cc1
  110, 98, 91, -40
104: CCn1ccnc1P(=S)(N(C)C)N(C)C
  ., 89, 92, -4
105: Cc1[nH]c2ccccc2c1C1=CCN(C)CC1
  97, ., ., -28
106: C#CCN1C(=O)C2(C(C(=O)OCC)=C(N)Oc3ccccc32)C2=C1CC(C)(C)CC2=O (centres undefined)
  104, 107, 90, -11
107: O/N=C/c1c[nH]c2ccccc12
  101, 97, 87, -25
108: N[C@@H](CC(=O)N1CCn2c(nnc2C(F)(F)F)C1)Cc1cc(F)c(F)cc1F
  ., 96, 90, -42
109: Cc1cccnc1NC1=NCC(C)S1 (centres undefined)
  106, 112, 101, -7
110: OC1(c2ccc(F)cc2)CC2CCC(C1)N2Cc1nnnn1Cc1ccco1 (centres undefined)
  101, 90, 85, 5
111: N#CC(C#N)=Cc1ccsc1
  102, 90, 68, -25
112: Cc1ccc(CS(=O)(=O)Cc2ccc(C(=O)N3CCC4(CC3)OCCO4)o2)cc1
  111, 96, 102, 9
